quorum sensing: Vibrio cholerae quorum sensing activators, luminescence (AID 686977); V. cholerae quorum sensing reporter, luminescence, 6 h; higher luminescence means a stronger effect; most inactives read 0; luminescence at 50 µM unless noted; hits with a dose series show EC50 in µM; 9,400 tested, under 10 active;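 active means light above mean plus 3 SD and confirmed in a dose series; inconclusive means above that limit without a clear retest; inactive means below it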;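 further: raw light counts without normalisation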
Starred values were filed as active, the others as inactive; ? = inconclusive; [ ] = another dose, or the depositor's remark. Some of the compounds tested (hit frequency here may not be typical).

canonical_smiles,quorum sensing
CC(CCc1ccccc1)NC(=O)C1CCN(S(=O)(=O)N2CCCCC2)CC1 (stereo unspecified),?
Cc1ccc(C)c(NS(=O)(=O)c2cc(C(=O)NCc3ccco3)ccc2C)c1,0
COc1cc(Cl)c(C)cc1NC(=O)COc1ccccc1[N+](=O)[O-],0
Cc1ccccc1NC(=S)NNC(=O)c1csc2c1CCC(C)C2 (stereo unspecified),0
CC1=C(C(=O)Nc2cc(C)ccn2)C(c2ccc(C)cc2)C2=C(CCCC2=O)N1 (stereo unspecified),0
Cc1ccc(CN2CCNC(=O)C2CC(=O)O)o1 (stereo unspecified),40
CC1=C(C)CC2C(=O)N(c3cccc4ccccc34)C(=O)C2C1 (stereo unspecified),0
O=C(CCN1CCN(Cc2ccccc2)CC1)Nc1cccc(Cl)c1,40
CCn1c(=O)c(C(=O)NCCc2ccccc2)c(O)c2ccccc21,0
C=CCN1C(=O)CSC1=Nc1ccc(O)cc1,0
O=C(NC1(C(F)(F)F)NC(=O)N(C2CCCC2)C1=O)C1CC1 (stereo unspecified),0
COc1ccc(CCNC(=O)C2(C)CCC(=O)N2Cc2ccc3c(c2)OCO3)cc1OC (stereo unspecified),40
CCOc1ccccc1N1Cc2ccccc2C1,0
Cc1ccc(-n2nnnc2SCc2ccccn2)cc1C,40
CC1(C)CC(=O)C2=C(C1)NC(=O)CC2c1ccc(F)cc1 (stereo unspecified),0
COc1ccc(-c2cc(C(F)(F)F)nc(SCCC(=O)NCc3ccccc3)n2)cc1,0
C=CCSCC1Nc2cc(Cl)c(S(N)(=O)=O)cc2S(=O)(=O)N1 (stereo unspecified),0[10 µg/mL]
COc1ccc(C)cc1NC(=O)c1nnn(Cc2cccc(F)c2)c1N,240
CCOC(=O)c1cnc2c(C#N)c(C)nn2c1-c1ccccc1,0
O=C(CC1NCCNC1=O)OCCCc1ccccc1 (stereo unspecified),0
Cc1cc2ccccc2n1CCNC(=O)COc1ccc2ccccc2c1,40
Nn1cc(-c2ccccc2)nc1SCC(=O)N1CCN(S(=O)(=O)c2ccccc2)CC1,40
Cc1ccc(-n2nnc3c(=O)n(CC(=O)OCc4ccccc4)cnc32)cc1,240
Cc1ccc[n+](-c2nc3ccccc3nc2C(=C=[N-])C#N)c1,0
CCc1ccccc1NC(=O)c1ccc(CN2CCC(Cc3ccccc3)CC2)cc1,40
O=C(c1ccco1)N1CCN(c2ccccc2F)CC1,0
Cn1c(=O)c2c(nc(CN3CCN(Cc4ccccc4)CC3)n2Cc2ccc(F)cc2)n(C)c1=O,0
CC(=O)N1CCN=C1SCc1ccc(F)cc1,0
O=C(Cn1cc2c(n1)CCCC2)NCCCN1CCCC1,0
Cc1cc(C(=O)OCC(=O)c2ccc3c(c2)NC(=O)CO3)c2ccccc2n1,0
Cc1cc(C)c(C(=O)C2OC(=O)C(C)(C)C(=O)C2(C)C)c(C)c1 (stereo unspecified),?
CCOC(=O)c1cccc(NC2c3ccccc3C(=O)N2Cc2ccco2)c1 (stereo unspecified),0
S=C(c1ccc(N2CCOCC2)cc1)N1CCCCC1,40
CCOP(=O)(c1ccc(N(C)C)cc1)C(O)c1ccc(Cl)cc1 (stereo unspecified),40
COC(=O)c1nc2n(n1)C(c1cccc(Cl)c1)C1=C(CC(C)(C)CC1=O)N2 (stereo unspecified),0
CC1CCN(c2c(NCC3CCC(C(=O)N4CCCC(C)C4)CC3)c(=O)c2=O)CC1 (stereo unspecified),0
CCOC(=O)c1cccc(NC(=O)C2CCCN(S(=O)(=O)c3cnc[nH]3)C2)c1 (stereo unspecified),40
COc1ccc(NC(=O)C2CCCN2S(=O)(=O)c2ccc3c(c2)CCC(=O)N3)cc1 (stereo unspecified),280
Cc1ccc(S(=O)(=O)C2(C(=O)NCc3ccc4c(c3)OCO4)CC2)cc1,0
CN(C)C(=O)CCCc1nc(-c2ccc(Cl)cc2)no1,0
CCC(OC(=O)C1=Cc2ccccc2OC1)C(=O)NC1CCCC1 (stereo unspecified),0
CN(C(=O)c1cnc2n(c1=O)CCS2)C1CCCCC1,0
COc1ccc(OC)c(CCNC(=O)CN2C(=O)CC(C)(C)S(=O)(=O)c3ccccc32)c1,0
CCn1cc(S(=O)(=O)CC(=O)Nc2ccc(C)cc2)c2ccccc21,0
O=C(N1CCN(Cc2ccccc2)CC1)C12CC3CC(CC(C3)C1)C2,0
Cc1cc(C)cc(NC(=O)CSc2nnc(Cc3cccn3C)n2-c2ccc(F)cc2)c1,200
CCOC(=O)CN(C(=O)CSc1nnc(CNc2ccc(F)cc2)n1C)c1ccccc1,0
CC1CCC(n2c(=S)[nH]c3ccccc3c2=O)CC1 (stereo unspecified),0
CCOc1ccc(S(=O)(=O)N2CCN(Cc3ccccc3)CC2)c2cccnc12,?
COc1ccccc1-c1nnc2n1N=C(c1ccc(O)c(O)c1)CS2,0
CCOC(=O)N1CCN(c2c(NCC3CCCO3)c(=O)c2=O)CC1 (stereo unspecified),280
Cc1ccc(/C=C/S(=O)(=O)N2CCC(C(=O)O)CC2)cc1,0
Cc1cc(C)n(C(=O)CCC(=O)NCc2ccccc2)n1,0
Cc1ccccc1Nc1nc(N)nc(CSc2nc3ccccc3c(=O)n2C)n1,40
CCn1c(-c2cccnc2)n[nH]c1=S,0
CC1CN(C(=O)Nc2ccc3snnc3c2)c2ccccc21 (stereo unspecified),0
CCc1nc(C)cn1S(=O)(=O)c1cc(OC)c(C)cc1C,0
CN1C[C@H](CO)C=C2c3cccc4[nH]cc(c34)C[C@H]21,0[10 µg/mL]
O=C1CCc2cc(S(=O)(=O)N3CCC(C(=O)NCc4ccccn4)CC3)ccc2N1,0
Cc1cc(=O)oc2c(CN(CC(C)C)CC(C)C)c(O)ccc12,0

Six entries picked at random from the list so far:
canonical_smiles,quorum sensing
CCn1c(-c2cccnc2)n[nH]c1=S,0
CCOC(=O)CN(C(=O)CSc1nnc(CNc2ccc(F)cc2)n1C)c1ccccc1,0
Cc1cc(C)n(C(=O)CCC(=O)NCc2ccccc2)n1,0
COc1ccccc1-c1nnc2n1N=C(c1ccc(O)c(O)c1)CS2,0
CCOc1ccc(S(=O)(=O)N2CCN(Cc3ccccc3)CC2)c2cccnc12,?
CC1CN(C(=O)Nc2ccc3snnc3c2)c2ccccc21 (stereo unspecified),0

Following part.
canonical_smiles,quorum sensing
CCOC(=O)c1[nH]c(C)c(C(=O)N2CCN(c3ccccc3)CC2)c1C,40
CCN(C(=O)C1CCN(S(=O)(=O)c2ccc3c(c2)oc(=O)n3C)CC1)c1cccc(C)c1,40
CN(C)c1cccc(C(=O)OCc2cc(=O)oc3cc(O)ccc23)c1,40
Cc1ccc2c(c1)cc(CN(Cc1ccc3c(c1)OCO3)S(=O)(=O)c1ccccc1)c1nnnn12,0
CC1=C(C(=O)Nc2ccccc2)C(c2ccc(O)cc2)N2C(=O)CSC2=N1 (stereo unspecified),0
CCN1CCN(c2ccc(NC(=O)c3cccc(OCc4ccccc4)c3)cc2)CC1,80
COc1ccc(S(=O)(=O)n2nc(OC(=O)C3CCCCC3)cc2N)cc1,0
O=C(Cn1c(S(=O)(=O)Cc2ccccc2)nc2ccccc21)N1CCCCC1,80
COc1cccc2c(=O)n(CC(=O)Nc3ccccc3)ccc12,40
Cc1ccccc1OCCCCc1c(C)n[nH]c1C,0
CCCOc1cccc(C(=O)Nc2cc(NC(=O)c3ccco3)ccc2OC)c1,0
CCOC(=O)NCc1ccc2c(c1)OCO2,40
CCOc1ccccc1NC(=O)CSc1c(C)n[nH]c1C,0
CN1CCC(n2nccc2N)CC1,40
CCOc1ccc(OCC)c(NC(=O)C2CCCN(S(=O)(=O)c3cnc[nH]3)C2)c1 (stereo unspecified),?
COc1cccc(CC(=O)Nc2nccs2)c1,0
COc1ccc(NC(=O)CSc2nnc(-c3ccccc3C)n2C)cc1,0
CCN(CC)S(=O)(=O)c1ccc(C2CNC(=O)C2)cc1 (stereo unspecified),0
Cc1ccc(NC(=O)/C(CN(C)C)=N\O)cc1,0
COc1ccc(N2CCN(Cc3ccc(Br)s3)CC2)cc1,40
Cc1ccc(CNS(=O)(=O)NCc2ccccc2)cc1,0
COc1ccc(CC(=O)Nc2oc(-c3ccccc3)c(-c3ccccc3)c2C#N)cc1OC,40
Nc1ccccc1N1CCOCC1,280
COc1ccc2cc(CN(CC3CCCO3)S(=O)(=O)c3ccccc3)c(=O)[nH]c2c1 (stereo unspecified),40
O=C(Nc1nnc(-c2ccc3c(c2)CCCC3)o1)c1ccc(Cl)cc1Cl,0
CCn1c(=O)cc(N2CCC3(CC2)OCCO3)[nH]c1=O,0
CN(C)CC/C=C1\c2ccccc2Sc2ccc(Cl)cc21,40[10 µg/mL]
Cc1ccccc1CN(c1ccc(C(=O)Nc2ccccc2C(=O)NCc2ccco2)cc1)S(C)(=O)=O,0
O=C(Cc1n[nH]c(=O)[nH]c1=O)N/N=C/c1cccc(O)c1,40
Cc1cc(C)cc(NC(=S)NC(=O)CCN2C(=O)c3ccccc3C2=O)c1,40
Cc1ccc(OCCCN2CCCC2)c(C)c1,0
COc1cccc(C(=O)Nc2ccccc2)c1,40
COC(=O)C1Sc2[nH]c(=O)sc2C(c2ccc(Cl)cc2)C1C(=O)OC (stereo unspecified),40
Cc1cccc(C)c1OCCCN1CCCC1,0
CC1CC(=O)N(CC(=O)N2CCCC2)c2ccccc2S1 (stereo unspecified),40
COc1ccc(OC)c(NC(=O)C2CCC(CNc3c(N4CCC(C)CC4)c(=O)c3=O)CC2)c1 (stereo unspecified),40
COC(=O)c1c(C)[nH]c(C)c1-c1ccccc1,0
CCOc1ccc2[nH]c(C)cc(=O)c2c1,200
CC(=O)c1c(C)[nH]c(C(=O)NCc2cccs2)c1C,40
CCN(CCCNC(=O)Cn1ncc2c(=O)oc3ccccc3c21)c1cccc(C)c1,40
CCOC(=O)C1SC2(C(F)(F)F)CC1(O)c1c(C)cc(C)nc1O2 (stereo unspecified),0
CCn1c(O)c(C2=NCCCC2)c2ccccc21,0
CCCCN(CCCC)CC(O)CN1C(=O)NC(C)(C)C1=O (stereo unspecified),0
Cn1c(NC(=O)c2ccc(F)c(F)c2)cc(=O)n(C)c1=O,0
O=C(NCCc1ccncc1)c1ccccc1F,40
Cc1ccc(-n2c(Cc3cccn3C)nnc2SCC(=O)Nc2nnc(C)s2)cc1,0
CCn1c(SCC(=O)N2CCCCC2)nc2c(c1=O)SC(C)C2 (stereo unspecified),0
O=c1cc(Nc2ccc3c(c2)OCCO3)[nH]c(=O)n1-c1ccc(Cl)cc1,?
Nc1sc2c(c1C(=O)NC1CCS(=O)(=O)C1)CCCC2 (stereo unspecified),0
Cn1cc(C(c2ccccn2)c2cn(C)c3ccccc23)c2ccccc21,0
CCOC(=O)Cn1c(=O)oc2cc(S(=O)(=O)N3CCCc4ccccc43)ccc21,0
CC(C)C[C@H](NC(=O)OC(C)(C)C)c1nnc(SCc2cccc(F)c2)o1,?
C/C(N)=C(/C#N)C(=O)CSc1nnc(Nc2cccc(C)c2C)s1,0
Cc1ccccc1CS(=O)(=O)CCC(=O)NCCN1CCN(c2cccc(Cl)c2)CC1,0
COc1cccc(NC(=O)CCN2C(=O)c3ccccc3S2(=O)=O)c1,0
Clc1ccc(C2CC(c3cccs3)n3ncnc3N2)cc1Cl (stereo unspecified),0
CSc1cccc(NC(=O)C2CCCN(S(=O)(=O)c3cnc[nH]3)C2)c1 (stereo unspecified),0
CCOC(=O)N1CCN(C(=O)CSc2nc3c(cnn3-c3ccc(Cl)cc3)c(=O)[nH]2)CC1,0
CCOC(=O)c1csc(NC(=O)C(C)(C)C)n1,0
Cc1cccc(NC(=O)CC2SC(=O)N(c3ccccc3)C2=O)c1 (stereo unspecified),0

(continued)
canonical_smiles,quorum sensing
Cn1c(SCC(=O)N2c3ccccc3Sc3ccccc32)nnc1-c1ccco1,0
CS(=O)(=O)N(CC(=O)N1CCCCCC1)Cc1ccc(Cl)cc1,0
CSc1nnc([C@@H](NC(=O)OC(C)(C)C)C(C)C)o1,440
CC(NC(=O)c1ccc(Cl)s1)C1CCCO1 (stereo unspecified),0
Cc1cc(C)c(NC2=NS(=O)(=O)c3ccccc32)c(C)c1,40
COc1cccc(Nc2cc(C)nc3nc(C)nn23)c1,0
COc1ccc(CN(CC(=O)NCC2CCCO2)C(=O)CCC(=O)Nc2cc(C)ccn2)cc1 (stereo unspecified),0
c1cncc(-c2nnc(SCc3cccc4ccccc34)o2)c1,40
O=C(CCc1nc(-c2ccccc2)no1)NC1CCCCC1,0
CC(C)C(=O)Nc1ccc(NC(=S)NC(=O)c2ccc([N+](=O)[O-])cc2)cc1,0
Cn1cnnc1SCC(=O)c1ccc2c(c1)OCCO2,40
CC(C)n1c(/C=C/[C@H](O)C[C@H](O)CC(=O)O)c(-c2ccc(F)cc2)c2ccccc21,40[10 µg/mL]

Shown field by field: 4 of the compounds above.
mol: Cn1c(SCC(=O)N2c3ccccc3Sc3ccccc32)nnc1-c1ccco1
  quorum sensing: 0
mol: CC(NC(=O)c1ccc(Cl)s1)C1CCCO1 (stereo unspecified)
  quorum sensing: 0
mol: CS(=O)(=O)N(CC(=O)N1CCCCCC1)Cc1ccc(Cl)cc1
  quorum sensing: 0
mol: Cn1cnnc1SCC(=O)c1ccc2c(c1)OCCO2
  quorum sensing: 40

Compound activity deposited in PubChem by Southern Research Specialized Biocontainment Screening Center.
